Source: PubChem BioAssay
BJeLR lethal = MLPCN primary cell-based screen for lethality selective to Ras in HRASV12 cells | BJeLR (HRASV12) viability, CellTiter-Glo ATP luminescence, 48 h; reference of the scale not given here | inhibition, % (concentration not given with the values) | actives 0.17% (n = 300,000);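 active = replicate mean above 50%; inconclusive = above 50% but judged a plate artefact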;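 note: 50 nL library stock added to about 25 µL; numbers are from one replicate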
PrP UTR inh = inhibition of PrP 5' UTR reporter expression; cell-based PrP 5' UTR mRNA reporter, plate reader; AID 488862, 2010; inhibition, % (test concentration not listed); actives 0.35% (n = 340,000);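 active = every replicate at 50% or more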;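 note: 0 = median of the neutral control wells; tested in H4 reporter cells; numbers are from one replicate; inactives centre near -14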
Mtb hypoxia inh = PubChem AID 1159583. fluorescence inhibition, % (no concentration beside the values). actives 0.1% (n = 300,000). M. tuberculosis hypoxia-regulated fluorescent reporter, fluorescence;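 active = 35 to 45% if threefold the growth effect, above 45% if 1.5-fold the growth effect; inactive = the rest, general growth blockers included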;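 note: wells of about 50 µL received 100 nL stock; 0% = vehicle wells and 100% = reference inhibitor wells; whole bacteria with a GFP reporter of the hypoxia response; strong numbers were not always called active; many hits fall short of the cut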
Sa ugtP lethal = growth inhibition of ugtP-null S. aureus, primary screen, RN4220 ugtP deletion, OD600. 16 h; some inactives read as strong as hits. growth inhibition, % (no concentration beside the values). actives 0.54% (n = 330,000);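 active = z-score under -3 and OD600 up to 0.15 on both plates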;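 note: plate controls were untreated wells for no effect and antibiotic for full effect; wells of about 80 µL received 100 nL stock; the first replicate is given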
RN4220 kill = growth inhibition of S. aureus RN4220, primary screen, OD600; actives 0.33% (n = 330,000); inhibition, % (concentration not given with the values); 16 h;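 active = z-score of -3 or lower and OD600 up to 0.18 on both plates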;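 note: plate controls were untreated cells for no effect and reference antibiotic for full effect; stock transfer was 100 nL into about 80 µL; one replicate is shown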
Bead autofluor = counter-screen for toxin protease inhibitors: compound fluorescence | compound autofluorescence counterscreen, microsphere flow cytometry; hits give high values | fluorescence intensity (concentration not given with the values) | actives 3.1% (n = 360,000);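 active = at least 3 SD above the mean of all compounds, about 16000 in these data; inconclusive = too few beads counted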;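 note: 100 nL of 1 mM stock went into each well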
Mtb hypoxia inh growth = also measured in Mtb hypoxia inh; calls as there; growth inhibition, %; measured here: M. tuberculosis growth (absorbance);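 0% = vehicle and 100% = reference antibiotic; read after six days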
The depositor's hits bear a star; ? = inconclusive; · = no result given; & = joins results of further samples.

| SMILES | BJeLR lethal | PrP UTR inh | Mtb hypoxia inh | Mtb hypoxia inh growth | Sa ugtP lethal | RN4220 kill | Bead autofluor |
| --- | --- | --- | --- | --- | --- | --- | --- |
| COc1ccc(C)c2sc(N(CCN(C)C)C(=O)c3cccc(N4C(=O)CCC4=O)c3)nc12 | 1.3 | -24.8 | -0.9 | 9.8 | -3.3 | 2.2 | 5939 |
| CN(C)N=Cc1cc(Cl)cc([N+](=O)[O-])c1O | · | · | 8.9 | 0.1 | -0.2 | 5.1 | · |
| O=[N+]([O-])c1ccc(Oc2ccc(-c3nnco3)cc2)c(Cl)c1 | 12.3 | -15.0 | 6.6 | 7.1 | 2.1 | 3.4 | 4510 |
| CC(=NNC(=O)CN1CCN(Cc2ccccc2)CC1)c1cccs1 | · | · | 4.0 | -0.3 | 11.1 | 3.1 | · |
| O=C(NCCS(=O)(=O)NCC1CCCO1)c1ccccc1 (centres undefined) | -3.8 | -15.4 | -2.8 | -8.4 | 15.1 | 4.1 | 3915 |
| O=C(CSc1nnc(C2CC2)n1-c1ccccc1)NCCN1C(=O)CSC1=O | 3.7 | -11.9 | 0.3 | 1.1 | 1.2 | 1.0 | 3004 |
| O=C(CCC(=O)OCCCC(F)(F)C(F)(F)F)NC1CCCCC1 | 6.7 | -18.0 | 3.4 | 9.5 | 4.7 | 0.0 | 11807 |
| O=C(Nc1nc2ccc(S(=O)(=O)N3CCCC3)cc2s1)c1cccs1 | 4.1 | -4.6 | · | · | -3.3 | 2.7 | 4666 |
| O=C(NCCOc1ccccc1)C1CCC(=O)N(CCCN2CCOCC2)C1 (centres undefined) | -6.6 | -32.0 | 5.1 | 4.9 | 0.7 | 3.1 | 5931 |
| Cn1ncc([N+](=O)[O-])c1C(=O)N/N=C/c1c[nH]c2ccccc12 | -6.6 | -21.6 | · | · | · | · | 2227 |
| CCc1ccc(NC(=O)CCc2nc3ccccc3[nH]2)cc1 | -2.2 | -21.6 | -1.3 | -6.4 | 19.9 | 1.0 | 4431 |
| Cc1noc(C)c1C(=O)Nc1ccc(-n2ccc(C(F)(F)F)n2)cc1 | 2.0 | -19.8 | 12.3 | 3.2 | 20.9 | -0.4 | 3391 |
| Cc1ccc(S(=O)(=O)N2CCN(C(=O)c3ccccc3)CC2)c(C)c1NS(C)(=O)=O | -4.4 | 0.3 | 4.8 | 15.1 | 6.3 | 0.8 | 4799 |
| CCCCNC(=S)N/N=C/c1ccc(C#N)cc1 | 9.5 | -18.2 | · | · | · | · | 4234 |
| CCn1cc(CN2CCC(n3nccc3NC(=O)CCOc3ccccc3)CC2)cn1 | -4.3 | -36.4 | 3.4 | 0.5 | 9.0 | 5.0 | · |
| CCOC(=O)C1C(=O)NC(N2CCN(Cc3ccccc3)CC2)=NC1c1ccco1 (centres undefined) | 0.1 | -10.3 | 5.3 | 1.5 | 16.7 | 4.8 | 4348 |
| CN1CCCC(OC(=O)COc2ccc(Br)cc2)C1 (centres undefined) | -3.9 | -27.2 | 9.5 | 11.3 | -1.7 | -6.8 | 3107 |
| CCOC(=O)CSc1nnc(CNC(=O)c2cc(OCC)c(OCC)c(OCC)c2)n1C | · | -36.0 | 7.7 | 5.9 | -1.1 | 2.3 | 23875* |
| O=C(N/N=C/C1CC=CCC1)c1ccccc1O (centres undefined) | -7.2 | -0.6 | · | · | · | · | 2426 |
| O=[N+]([O-])c1ccccc1CSc1ccccn1 | -1.3 | -68.2 | 12.2 | -4.1 | 6.9 | 5.8 | 5975 |
| O=C1C=C(O)C(n2cncn2)C(c2cc(F)ccc2F)C1 (centres undefined) | -1.3 | -29.8 | -0.6 | 9.8 | -3.3 | 1.3 | 4468 |
| O=C(NCCN1CCOCC1)c1ccc(Cl)nc1Cl | -12.1 | -10.2 | 4.6 | 12.9 | 12.9 | 1.2 | 2382 |
| CC(C)C(NC(=S)NCc1ccccc1)C(=O)O (centres undefined) | -10.7 | -8.9 | 8.0 | 0.9 | -0.7 | 8.2 | 4692 |
| Cc1ccc(N2C(=O)CCC2(C#N)c2ccccc2)cc1 (centres undefined) | -1.8 | -23.4 | -1.4 | -5.5 | 4.8 | 3.0 | 3625 |
| CCOc1ccc(-n2c(=O)c3c4c(sc3n(CC(=O)NCCCOC)c2=O)CCCCC4)cc1 | -2.0 | -18.5 | -2.1 | -0.8 | -0.1 | 2.1 | 5161 |
| C=CCS(=O)(=O)N1CCC(CCOc2ccccc2)(C(=O)OCC)CC1 | -6.0 | 29.5 | -6.1 | -3.4 | 3.1 | -2.0 | 4295 |
| Cc1ccc(Cc2cnc(NC(=O)/C(C#N)=C/c3ccc(-c4ccc([N+](=O)[O-])cc4)o3)s2)cc1 | 0.2 | -30.9 | 16.9 | 6.7 | -3.1 | 0.6 | 5142 |
| Cc1cc(C)n2nc(CNS(=O)(=O)c3ccc(C)c(C)c3)nc2n1 | 10.1 | -5.3 | 3.0 | 0.8 | 2.6 | 3.8 | 5045 |
| CN1CCN(CCCNC(=O)c2ccc(/C=C3\Sc4ccccc4N(Cc4ccccc4F)C3=O)cc2)CC1 | 11.0 | 13.0 | 5.1 | -3.5 | 14.5 | -4.9 | 3391 |
| O=c1c2c3c(sc2ncn1-n1cccc1)CCCCC3 | -9.0 | -21.7 | 6.4 | 10.7 | -3.8 | 22.6 | 3717 |
| O=C(O)c1cccc(N/C(=N\S(=O)(=O)c2ccccc2)c2ccccc2)c1 | 1.4 | -7.0 | · | · | · | · | 4260 |
| O=C(Cc1n[nH]c(=O)[nH]c1=O)N/N=C/c1ccccc1O | -8.9 | -25.1 | · | · | · | · | 5228 |
| CC(=O)Nc1ccc(CN2CCN(C3CCCCC3)C(CCO)C2)cc1 (centres undefined) | 8.0 | 2.7 | 3.3 | -8.8 | 1.0 | 2.7 | 3959 |
| O=C(N/N=C/C(Br)=C/c1ccccc1)c1n[nH]c2c1CCC2 | -3.6 | -15.5 | · | · | · | · | 8354 |
| COc1cc(OC)nc(Oc2cc(C=O)ccc2OC)n1 | 10.3 | -12.9 | 17.4 | 7.0 | 14.1 | 0.7 | 3759 |
| NC(=S)N/N=C/c1cccc(/C=N/NC(N)=S)c1 | 0.9 | 2.2 | · | · | · | · | 4652 |
| CCn1c(=O)c(C(=O)CN(C)CC(=O)Nc2ccccc2Br)c(N)n(Cc2ccccc2)c1=O | · | -12.0 | 0.8 | 4.4 | 1.5 | -4.0 | 5633 |
| CCOC(=O)C1C2COc3ccccc3C2N2C(=O)N(c3cccc(C)c3)C(=O)[C@]12C (some centres undefined) | · | · | 2.8&3.2 | 4.0&1.3 | -0.7&-3.1 | 0.2&6.2 | · |
| CCOC(=O)N/N=C1\CC(C)S(=O)(=O)c2ccc(Cl)cc21 (centres undefined) | 3.2 | -19.8 | · | · | · | · | 3945 |
| CC(C)(C)c1cc(C(=O)Nc2cccnc2)cc(C(=O)Nc2cccnc2)c1 | 3.9 | -0.3 | -2.5 | -0.8 | -4.1 | -3.9 | 2955 |
| O=C(NCCCl)c1ccc(OCc2ccccc2)cc1Cl | 6.8 | -26.1 | 15.4 | 12.9 | -13.1 | 0.6 | 4504 |
| O=S(=O)(c1cccs1)N1CCN(c2cccc(Cl)c2)CC1 | 11.5 | -4.2 | 13.6 | 5.6 | 16.0 | 4.9 | 4563 |
| CC(C)(CO)NC(=O)c1ccc2nc(Cc3cccc(Cl)c3)oc2c1 | 2.2 | -30.9 | 4.6 | 8.0 | 3.6 | 2.6 | 3602 |
| COCCN(C(=O)COC(=O)/C=C/c1ccc(Cl)c(Cl)c1)c1c(N)n(Cc2ccccc2)c(=O)[nH]c1=O | · | -23.8 | 9.8 | 4.4 | 3.9 | 3.1 | 6686 |
| O=C(CSc1nncn1-c1ccccc1)Nc1cc(Cl)cc(Cl)c1 | -11.9 | -6.1 | 6.6 | 3.1 | -10.5 | 1.7 | 11277 |
| O=C(Nn1cnnc1)c1cc(-c2ccccn2)nc2ccccc12 | 5.1 | 0.8 | 6.5 | 10.7 | 3.2 | 2.4 | 2864 |
| COc1ccccc1COCC(O)CNCCc1ccc(C(F)(F)F)cc1 (centres undefined) | -10.7 | -11.2 | 0.6 | 6.6 | -12.7 | -0.3 | 3909 |
| O=C(Cc1c(Cl)cccc1Cl)NC1CC1 | 8.5 | · | 3.3 | 7.5 | 9.5 | 2.9 | 3800 |
| CCN(c1ccccc1)S(=O)(=O)c1ccc2[nH]cc(C(=O)N3CCOCC3)c(=O)c2c1 | -3.0 | -17.5 | 8.6 | 0.7 | 7.9 | 6.3 | 2492 |
| Cc1cccc(N2CCN(C(=O)c3cccc(N4C(=O)C5C6C=CC(C6)C5C4=O)c3)CC2C)c1 (centres undefined) | -10.2 | -1.0 | -3.9 | 2.9 | 2.5 | -0.2 | 5537 |
| CSc1ccc(Cl)c(C(=O)OCC(=O)NCC(C)C)c1 | 8.5 | -7.6 | 2.4 | -0.5 | 9.7 | 4.6 | ? |
| Cn1c2c(c(=O)n(C)c1=O)C1(C(=O)Nc3ccccc31)C(C#N)=C(N)O2 (centres undefined) | -18.4 | -2.0 | 4.7 | 2.3 | -9.6 | 27.7 | 9566 |
| CN(Cc1ccco1)C(=O)CN1C(=O)NC2(CCCCC2)C1=O | · | -10.8 | 7.6 | 9.0 | 0.4 | 1.5 | 3466 |
| Cc1n[nH]c(C)c1CCC(=O)NN=C/C=C/c1ccccc1 | · | · | -9.6 | 2.2 | 8.8 | 6.2 | · |
| Cc1ccc(C(C)C)c(OCCn2ccnc2C)c1 | -1.0 | -23.3 | 8.6 | 15.6 | 11.8 | 6.1 | 3554 |
| CC1CCN(c2ccccc2NC(=O)c2cc3ccccc3o2)CC1 | 2.4 | 1.0 | 5.4 | -6.3 | 5.4 | -9.7 | 6510 |
| CCCOc1ccc(C2C(=O)N(C3CCCCC3)CC(=O)N2CCCOCC)cc1OC (centres undefined) | · | -9.9 | 0.5 | 7.7 | -2.8 | 3.3 | 22919* |
| CC1N=C2c3ccccc3N=C(SCc3cc(=O)n4cc(Cl)ccc4n3)N2C1=O (centres undefined) | -1.9 | -10.0 | 1.1 | 4.5 | 16.1 | 5.5 | 4245 |
| Cc1ccccc1N1C(=O)NC(=O)/C(=C/c2ccc(N3CCOCC3)o2)C1=O | 6.7 | -10.1 | · | · | 2.1 | 2.4 | 3188 |
| O=C(NCc1ccc(Cl)cc1)[C@@H]1CCCN1S(=O)(=O)c1ccc(Cl)cc1 | · | -10.2 | 6.8 | 6.6 | -1.3 | 0.0 | 3724 |

Limited to Mtb hypoxia inh and Sa ugtP lethal, for some of the entries so far:
| mol | Mtb hypoxia inh | Sa ugtP lethal |
| --- | --- | --- |
| O=C(Cc1c(Cl)cccc1Cl)NC1CC1 | 3.3 | 9.5 |
| CCN(c1ccccc1)S(=O)(=O)c1ccc2[nH]cc(C(=O)N3CCOCC3)c(=O)c2c1 | 8.6 | 7.9 |
| Cc1cccc(N2CCN(C(=O)c3cccc(N4C(=O)C5C6C=CC(C6)C5C4=O)c3)CC2C)c1 (centres undefined) | -3.9 | 2.5 |
| CSc1ccc(Cl)c(C(=O)OCC(=O)NCC(C)C)c1 | 2.4 | 9.7 |

New compounds follow
| SMILES | BJeLR lethal | PrP UTR inh | Mtb hypoxia inh | Mtb hypoxia inh growth | Sa ugtP lethal | RN4220 kill | Bead autofluor |
| --- | --- | --- | --- | --- | --- | --- | --- |
| CCN(CC)CCN(Cc1cc2cc(C)cc(C)c2[nH]c1=O)C(=S)NCc1ccco1 | -19.1 | -5.5 | 2.4 | 10.9 | -4.3 | 1.3 | 4271 |
| C[C@H](CO)N1C[C@H](C)[C@@H](CN(C)S(=O)(=O)c2ccc(F)cc2)Oc2ccc(NS(=O)(=O)c3cccs3)cc2C1=O | · | -20.6 | 3.3 | 9.4 | 15.9 | 16.5 | 4042 |
| CC(C)CCOc1ccc(/C=N/N2C(=O)CSC2=S)cc1 | -3.9 | -9.3 | · | · | · | · | 5178 |
| O=S(=O)(c1cccc(-c2nnc(SC(F)F)n2-c2ccccc2)c1)N1CCCCC1 | 4.9 | -7.9 | -5.1 | -3.2 | -4.5 | 16.1 | 2958 |
| O=C(/C=C/c1cccc(OCc2ccccc2)c1)c1cccnc1 | -7.6 | -9.5 | 2.0 | 0.1 | 5.2 | 6.3 | 2236 |
| COCCN(C(=O)COC(=O)c1cccnc1SC)c1c(N)n(Cc2ccccc2)c(=O)[nH]c1=O | -6.7 | 4.1 | · | · | · | · | 4020 |
